# Hsc70 ATP site = Hsc70 inhibitors, probe displacement, primary screen, biochemical, fluorescence polarization (AID 568) | Hsc70 fluorescence polarization, probe displacement; higher % means a stronger effect; strong numbers were not always called active | Heat shock cognate 71 kDa protein (Homo sapiens) | 83,000 tested, under 10 active | one-dose displacement, % at 20 µM; IC50 in µM for titrated hits;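 active = displacement above 50% without optical interference and an IC50 on retest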;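 note: ATPase domain with a fluorescein-tagged ATP probe; 0% = vehicle and 100% = excess ADP; read after one hour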
# MT1-MMP reporter = inhibitors of MT1-MMP promoter transcription, cell-based, luciferase reporter, luminescence (AID 618) | MT1-MMP promoter luciferase reporter cells, luminescence | calls from a first round at 10 µM; hits with a dose series show EC50 in µM | actives 0.62% (n = 87,000);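 active = over half of the reporter light lost at 10 µM or EC50 under 50 µM; inactive = the rest and hits that failed the dose series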;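 note: actives suppress MT1-MMP promoter-driven transcription so potencies describe inhibitors; HT1080 fibrosarcoma cells; overnight exposure; toxic or luciferase-blocking compounds were not removed from the actives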
# WNV NS2B-NS3 inh = inhibitors of WNV NS2B-NS3 protease, primary screen, biochemical, fluorogenic substrate; Genome polyprotein (West Nile virus), P06935; actives 0.18% (n = 65,000); z-score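 (tested at a level between 10 and 100 µM)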; fluorogenic substrate Ex360/Em465; active compounds read low;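 active = z-score at -3 or under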;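 note: score is relative to mean and spread of the compound wells of a plate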
# Target sequence (P06935 1371-1501 limits assumed): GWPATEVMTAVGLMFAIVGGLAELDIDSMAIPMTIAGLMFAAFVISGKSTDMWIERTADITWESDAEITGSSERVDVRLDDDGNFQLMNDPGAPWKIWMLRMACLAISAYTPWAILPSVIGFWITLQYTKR
# Target sequence (P06935 1502-1679 limits assumed): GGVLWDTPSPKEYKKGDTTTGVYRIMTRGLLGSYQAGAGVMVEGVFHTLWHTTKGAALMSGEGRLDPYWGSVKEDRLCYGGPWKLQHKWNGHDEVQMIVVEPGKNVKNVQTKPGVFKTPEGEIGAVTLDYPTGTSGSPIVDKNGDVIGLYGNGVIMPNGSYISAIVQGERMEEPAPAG
# Active calls of the source: *; i = inactive; · = no result given; + = active, no number. An excerpt; the hit share may differ from the screen's.
# Values run as follows: MT1-MMP reporter, WNV NS2B-NS3 inh, Hsc70 ATP site
> CCOC(=O)N1CCC(NC(=O)CCS(=O)(=O)c2ccc3c(c2)CCN3C(=O)CC)CC1
    i, 0.15, -9.9%
> CCn1cc(C(=O)OCc2ccccc2)c(=O)c2ccc(C)nc21
    i, 0.59, 4.3%
> O=C(CN1CCN(S(=O)(=O)c2ccc(Br)cc2)CC1)Nc1ccccc1F
    i, -0.32, -4.2%
> Cc1ccc(NC(=O)NCCCN2CCCC2=O)cc1
    i, ·, 4.5%
> Cc1ccccc1N=C(NOCc1ccccc1)c1nonc1N
    i, ·, -0.2%
> CC1(C)N=C(/C=N/O)CN1O
    i, -0.31, 6.9%
> CC(=O)Nc1cccc2c1OCCO2
    i, -0.78, 4.3%
> CC(C)(/C=N/O)/[N+]([O-])=C/c1ccccc1C(F)(F)F
    i, 0.55, -6.4%
> O=C1CC(c2c[nH]c3ccccc23)C(=O)N1 (stereo unspecified)
    i, -0.92, 3.9%
> CCCCCCNc1nc(NCc2ccco2)nc(OCC)n1
    i, ·, 3.3%
> O=C(CN(Cc1ccc2c(c1)OCO2)C(=O)CNC(=O)c1ccco1)NC1CCCCC1
    i, -0.98, 0.2%
> Cc1cc(OCC(=O)c2ccc(F)cc2)ccc1N1C(=O)CCC1=O
    i, -0.48, -1.4%
> Cc1ccc(/C=c2\sc3nc(-c4ccccc4Br)nn3c2=O)o1
    i, -1.1, -14%
> C=CCNC(=O)C(C#N)c1nc2ccccc2nc1N1CCCCCC1 (stereo unspecified)
    i, -1.9, 56%
> COc1ccccc1CN1CCSCC1
    i, ·, 0.6%
> N#CCSc1nc(Nc2ccc3c(c2)OCO3)c2ccccc2n1
    i, -0.69, -1.2%
> CC(=O)c1cn(CC(=O)Nc2ccccc2)c2ccccc12
    i, 1.5, -2.3%
> Cc1cc(-c2ccco2)n2c(nc3ccccc32)c1C#N
    i, -0.07, -2.1%
> COc1ccc(NC(=O)Cn2nnc(-c3ccccc3F)n2)cc1Cl
    i, -0.01, -3.7%
> N#Cc1cc2c(nc1SCC(O)CS(=O)(=O)Cc1ccccc1)CCCC2 (stereo unspecified)
    i, -0.66, -4.0%
> CCCS(=O)(=O)C(=C1Nc2ccccc2N1)S(=O)(=O)CCC
    i, 0.06, 2.0%
> CCCCCCC1/C(=N/O)CCC1C(=O)OC (stereo unspecified)
    i, -1.1, -1.7%
> CSc1nsc(SC)c1NC(=O)OC1CCCCC1
    i, 0.65, -1.3%
> CCCCC(=O)NC1(C(F)(F)F)C(=O)N(Cc2ccco2)C(C)=C1C(=O)OC (stereo unspecified)
    i, 2, 6.7%
> Nc1nnc(-c2cccnc2)s1
    i, 2.4, -0.1%
> O=C(CNC(=O)c1cccs1)OCC(=O)c1ccccc1
    i, ·, 1.3%
> Cc1nn(C)c(C)c1CNC(=O)c1nn2c(c1Cl)NC(c1cccs1)CC2C(F)(F)F (stereo unspecified)
    i, -0.84, -12%
> CCCCn1c(=O)c(Cc2ccccc2)c(O)c2ccccc21
    i, 1.2, -12%
> CCn1c(SCC(=O)c2cc(OC)ccc2OC)nnc1C(C)C
    i, -0.81, -2.9%
> CC(=O)NC(O)C(=O)c1ccco1 (stereo unspecified)
    i, -0.09, -1.9%
> CCOC(=O)C1=C(N)N(c2ccccc2Oc2ccccc2)C(=O)C1
    i, -0.58, -0.2%
> CCCOn1nnnc1-c1ccccc1
    i, -0.35, 1.0%
> C=CCSc1nc(N)c2c(C)c(C)sc2n1
    i, -0.34, 6.2%
> Cc1cccc(Nc2nc3c(c(=O)n(C)c(=O)n3C)n2Cc2ccccc2)c1
    i, -0.69, 6.2%
> O=C(CSc1nnnn1-c1ccc2c(c1)OCO2)NCc1cccs1
    i, 2, -8.2%
> COc1ccc(NC(=O)COC(=O)c2cnccn2)cc1Cl
    i, -0.04, 3.2%
> COc1ccc(-c2c(C)n([O-])c(C)c(C)[n+]2=O)cc1
    i, ·, 3.9%
> O=C(O)c1cccnc1Oc1ccccc1
    i, -1.1, 4.7%
> N#C/C(C(=O)N1CCOCC1)=C1/SC=C(c2ccccc2)N1c1ccccc1
    i, -0.61, -1.9%
> O=c1cc(N2CCc3ccccc32)[nH]c(=O)n1-c1ccccc1
    i, 0.04, -1.7%
> CN(C)S(=O)(=O)c1ccc(C(=O)Nc2ccc(F)cc2F)cc1
    i, 0.2, -1.0%
> Cc1cc(OCC(=O)Nc2ccc3oc(-c4ccncc4)nc3c2)ccc1Cl
    i, 0.71, 5.6%
> CC(C)OC(=O)CSc1nnc(CNc2nc(-c3ccccc3)cs2)n1C
    i, 0.01, -1.4%
> COc1ccccc1NC(=O)N(CCCN1CCOCC1)Cc1cc2cc3c(cc2[nH]c1=O)OCO3
    i, -1.1, -1.0%
> Cc1ccc(NC(=O)c2c(C)nc(Nc3nc4ccccc4o3)nc2C)cc1
    i, 0.55, 3.7%
> Cc1cc(N=Cc2cc(Cl)ccc2O)no1
    i, -0.95, -4.3%
> COc1ccc(-c2ccc(-c3noc(-c4ccc(OC)c(OC)c4)n3)c(OC)n2)cc1
    i, 0.56, -36%
> CCCCNC(=O)c1cc2c(=O)n3cccc(C)c3nc2n(Cc2ccncc2)c1=N
    i, 0.3, -8.3%
> CCn1c(SCc2nc3ccccc3c(=O)[nH]2)nnc1-c1cccnc1
    i, 0.24, -5.0%
> CC(C)NCC(O)COc1ccc(CC(N)=O)cc1 (stereo unspecified)
    i, 1.1, 0.1%
> Cc1ccnc2nc(C(=O)Nc3ccc(N4CCOCC4)cc3)nn12
    i, ·, -4.1%
> COc1ccccc1N1CCN(Cc2ccsc2)CC1
    i, -0.11, -0.2%
> CCOCC(=O)Nc1nnc(Cc2ccc(OC)c(OC)c2)s1
    i, 1.1, 5.9%
> COCCNC(=O)c1ccccc1NC(=O)C1COc2ccccc2O1 (stereo unspecified)
    i, 0.0047, 8.0%
> O=C(c1ccccc1)c1cn[nH]c1-c1ccccc1O
    i, ·, 1.7%
> C=CCn1c(SCC(=O)N2CCCC2)nc2cc(C(=O)NCC3CCCO3)ccc2c1=O (stereo unspecified)
    i, -0.03, 1.3%
> COc1ccc(NC(=O)NCCN2C(=O)C3C4C=CC(C4)C3C2=O)cc1 (stereo unspecified)
    i, -0.28, 1.0%
> COc1ccc(OC)c(NC(=O)c2nnn(CCc3ccccc3)c2N)c1
    i, 0.02, 1.9%
> CN1CCN(C2=Cc3ccccc3Sc3cc(F)c(Cl)cc32)CC1
    i, ·, -0.8%
> CCCNC(=O)c1ccc(-c2nc3ccccc3s2)s1
    i, ·, -1.4%

# Three entries from above, with each value named.
CC(C)NCC(O)COc1ccc(CC(N)=O)cc1 (stereo unspecified)
  MT1-MMP reporter: i
  WNV NS2B-NS3 inh: 1.1
  Hsc70 ATP site: 0.1%
Cc1cc(N=Cc2cc(Cl)ccc2O)no1
  MT1-MMP reporter: i
  WNV NS2B-NS3 inh: -0.95
  Hsc70 ATP site: -4.3%
COc1ccc(OC)c(NC(=O)c2nnn(CCc3ccccc3)c2N)c1
  MT1-MMP reporter: i
  WNV NS2B-NS3 inh: 0.02
  Hsc70 ATP site: 1.9%

# Next entries follow.
# Values run as follows: MT1-MMP reporter, WNV NS2B-NS3 inh, Hsc70 ATP site
> CCOc1ncccc1C(=O)OCC(=O)Nc1ncc(C(F)(F)F)cc1Cl
    i, -0.38, -0.6%
> CC(C)C1N=C2c3ccccc3N=C(SCc3cc(=O)n4cc(Cl)ccc4n3)N2C1=O (stereo unspecified)
    i, 0.84, 5.7%
> CCc1ccc(C2C(C#N)=C(N)Oc3n[nH]c(CC(=O)OC)c32)cc1 (stereo unspecified)
    i, ·, -2.3%
> c1cc2c(cc1C1CCCCC1)c1c3n2CCCNC3CCC1 (stereo unspecified)
    +, ·, -4.6%
> C=CCNC(=O)CSc1ccc(Cl)cc1
    i, -0.64, -6.1%
> COc1ccc(C(=O)COC(=O)C(CC(C)C)N2C(=O)c3ccccc3C2=O)cc1 (stereo unspecified)
    i, ·, 1.7%
> COc1ccc(OC)c(S(=O)(=O)Nc2ccccc2C(F)(F)F)c1
    i, -0.54, 6.7%
> CCN1CCCC1CNC(=O)c1cc2c(=O)n(C)c3ccccc3c2n1C (stereo unspecified)
    i, 0.35, 1.6%
> O=C(NCC1COc2ccccc2O1)c1cc2ccccc2o1 (stereo unspecified)
    i, ·, 0.7%
> Cc1ccc(C(C)C)c(OCCN(C)C)c1
    i, ·, 4.5%
> CCOC(=O)C1CCN(C(=O)CN(c2cc(OC)ccc2OC)S(=O)(=O)c2ccccc2)CC1
    i, -1.2, -2.6%
> CN1CCN(CCCNC(=O)Cn2ncc3c4ccccc4n(C)c3c2=O)CC1
    i, 0.04, 3.0%
> CCOC(=O)c1nnc(-c2ccc(C)cc2)nc1Sc1ccccc1Cl
    i, ·, -0.3%
> O=C(NCCN1CCN(Cc2ccccc2)CC1)c1cc2c(=O)[nH]c3ccccc3c2s1
    i, ·, -0.4%
> O=C(Nc1cccc(NC(=O)c2nccc3ccccc23)c1)c1ccco1
    i, -1.8, 6.2%
> COc1ccc(NC(=O)N2CCC(c3ccccc3)C2)c(OC)c1 (stereo unspecified)
    i, 0.13, 1.5%
> COc1ccc(C2Oc3ccccc3N2C(C)=O)cc1 (stereo unspecified)
    i, 0.09, -1.3%
> COc1ccccc1-n1c(N)c(C(N)=O)sc1=S
    i, -0.92, 1.6%
> COc1ccc(OC)c(NC(=O)CC(NCCC2=CCCCC2)C(=O)O)c1 (stereo unspecified)
    i, 0.41, 4.8%
> CCn1c(SCC(=O)NCC(=O)Nc2ccc(F)cc2)nnc1-c1ccncc1
    i, ·, -0.2%
> CCOc1ccc2[nH]c(=O)c(CN(Cc3ccco3)C(=O)c3cccc(F)c3)cc2c1
    i, -1.1, 0.9%
> CC(C)C(=O)N1CCN(c2ccc(NC(=O)c3ccc(Br)o3)cc2)CC1
    i, -0.94, 11%
> CCOC(=O)c1c(N)nn(C(=O)C(C)C)c1-c1ccccc1
    i, 1.2, -1.6%
> Cc1ccc(-n2c(Cc3cccn3C)nnc2SCC(=O)Nc2ccc3c(c2)OCO3)cc1
    i, 1.6, -1.3%
> Cc1cccn2c(=O)c3cc(C(=O)Nc4ccc(N(C)C)cc4)n(C)c3nc12
    i, -1.6, -4.7%
> COc1ccccc1-c1nnc(SCc2ccccn2)n1C
    i, 0.58, -1.1%
> CCOC(=O)c1c(C)[nH]c2cc(Br)c(O)cc12
    i, 1.1, -2.8%
> CNC(=O)CSc1nnc(COc2ccc(Cl)cc2)n1CCOC
    i, 0.05, -4.9%
> CCC(C)NC(=O)c1ccc(NC(=O)C2CCCO2)cc1 (stereo unspecified)
    i, -0.93, 0.3%
> c1ccc(COc2cccc(CN3CCN(c4ccccn4)CC3)c2)cc1
    i, -0.7, 0.5%
> CCCCCCCCCn1c2c(c(=N)c3c1CCC3)CCC2
    i, ·, 6.8%
> Oc1ccccc1C1=NCCNC(C(F)(F)C(F)F)=C1
    i, -1.3, 1.8%
> CCCNC(=O)c1cccc(COCC(F)(F)C(F)F)c1
    i, -2.3, 3.8%
> CC1Oc2ccccc2N(CC(=O)N2CCCc3ccccc32)C1=O (stereo unspecified)
    i, 0.39, 3.1%
> COc1ccc(NC2CC(=O)N(C(C)C)C2=O)cc1 (stereo unspecified)
    i, 0.86, 0.3%
> CCc1nnc(NC(=O)CSc2nnc(-c3ccc(OC)cc3)n2C)s1
    i, -0.62, -2.7%
> CC1(C)CC(=O)C2=C(C1)N(CC1CCCO1)C(=O)NC2(C(F)(F)F)C(F)(F)F (stereo unspecified)
    i, 1.7, 6.1%
> O=C(NCCc1ccccc1F)C1CCCN1S(=O)(=O)c1ccccc1 (stereo unspecified)
    i, -1, -1.0%
> CCOC(=O)c1cnn(CCOC(=O)Cc2cccs2)c1NC(=O)Cc1cccs1
    i, 0.12, -1.0%
> Cc1ccc(-n2ncc3c(N4CCCC(C)C4)ncnc32)c(C)c1 (stereo unspecified)
    i, -0.4, 1.2%
> Cc1cc(C)n(-c2ccc(Cl)c(C(=O)OCC(=O)N3CCCCC3C)n2)n1 (stereo unspecified)
    i, -0.71, 4.4%
> O=C(CCS(=O)(=O)c1ccc(Cl)cc1)Oc1ccc2c(c1)OCO2
    i, -0.2, 5.7%
> COc1ccccc1N1CCN(C(=O)CN(CCc2ccccc2)S(C)(=O)=O)CC1
    i, ·, 1.2%
> CCN(CC)CC#CCC(O)(c1ccccc1)C1CCCC1 (stereo unspecified)
    i, ·, -0.6%
> Oc1ccc(Nc2nc(N3CCCC3)c3ccccc3n2)cc1
    26µM*, -0.64, -1.6%
> CC(C)OCC(O)CN (stereo unspecified)
    i, 0.36, 4.3%
> CCOC(=O)/C(C#N)=C/NC(=O)NC(C)(C)C
    i, ·, 5.4%
> CCNS(=O)(=O)c1ccc(NC(=O)Cn2nc(C(F)(F)F)cc2C)cc1
    i, -0.38, 3.0%
> COc1ccc(/C=N/Nc2snc(SC)c2C#N)cc1OC
    i, ·, -3.1%
> O=C(Cn1nnc2c(cnn2-c2ccccc2)c1=O)N1CCN(c2ccccc2F)CC1
    i, 0.82, -5.4%
> COc1ccc(N2C(=O)CSC23C(=O)Nc2ccccc23)cc1 (stereo unspecified)
    i, ·, -0.6%
> CCCCNC(=O)CC1N=C2c3ccccc3N=C(SCC(=O)Nc3ccc(OC)cc3)N2C1=O (stereo unspecified)
    i, -0.91, -4.9%
> CN1CCN(S(=O)(=O)c2ccc(NC(=O)c3cccs3)cc2)CC1
    i, 1.3, 6.7%
> COC(=O)c1ccc(NC(=O)CSc2nnc(-c3ccncc3)n2C)cc1
    i, -0.1, -3.9%

# Screening results as filed in PubChem.
